Screening results from PubChem BioAssay.
FGF22 binding: FGF22 (human) thermal shift binding | Q9HCT0 | recombinant FGF22 thermal shift, SYPRO orange fluorescence; percent of sucrose octasulfate shift, DMSO zero | calls only at 9.99 µM | 340,000 compounds, 1.5% hits | AID 651658;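 active means melting point raised past a set limit in the mean and every replicate; inconclusive means no clear call; three in four hits are not shown here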
Target sequence (Q9HCT0 whole entry, looked up): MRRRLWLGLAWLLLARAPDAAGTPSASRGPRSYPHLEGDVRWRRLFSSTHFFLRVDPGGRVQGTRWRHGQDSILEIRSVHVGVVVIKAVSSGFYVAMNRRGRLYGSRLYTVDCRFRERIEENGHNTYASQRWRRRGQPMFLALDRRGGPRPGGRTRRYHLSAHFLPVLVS
Vif A3G: inhibitors of Vif binding to APOBEC3G peptide, primary screen, biochemical, TR-FRET, GST-Vif 1-94, biotin-A3G peptide, dose response retest (AID 1117319). TR-FRET GST-Vif / biotin-A3G peptide binding; higher % means a stronger effect; test concentration not given here; strong numbers were not always called active. inhibition, %, or IC50 in µM where a hit was titrated. 260,000 compounds, 0.57% hits;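 active means above the screen mean plus three standard deviations and confirmed in dose response; inconclusive means results disagree or hit not tested in dose response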;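 further: Vif residues 1-94 fused to GST binding biotinylated APOBEC3G peptide 110-148; 0% = full assay without inhibitor and 100% = GST in place of GST-Vif; retest series ran down from 100 µM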
HNF4A DNA FP: change in binding of human HNF4 alpha to DNA. P41235. HNF4a-FITC DNA binding, fluorescence polarization, 1 h. activity change, % at 10 µM. 360,000 compounds, 0.3% hits. AID 1224865; in the data active means activity change above about 30%, passing the limit was not always enough;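 further: controls were the assay level and a saturating level of protein; the project sought stronger binding though the title names inhibitors; some compounds called inactive have numbers as strong as hits; positive values seem to mean higher polarization but the record does not say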
Target sequence (P41235 whole entry, looked up): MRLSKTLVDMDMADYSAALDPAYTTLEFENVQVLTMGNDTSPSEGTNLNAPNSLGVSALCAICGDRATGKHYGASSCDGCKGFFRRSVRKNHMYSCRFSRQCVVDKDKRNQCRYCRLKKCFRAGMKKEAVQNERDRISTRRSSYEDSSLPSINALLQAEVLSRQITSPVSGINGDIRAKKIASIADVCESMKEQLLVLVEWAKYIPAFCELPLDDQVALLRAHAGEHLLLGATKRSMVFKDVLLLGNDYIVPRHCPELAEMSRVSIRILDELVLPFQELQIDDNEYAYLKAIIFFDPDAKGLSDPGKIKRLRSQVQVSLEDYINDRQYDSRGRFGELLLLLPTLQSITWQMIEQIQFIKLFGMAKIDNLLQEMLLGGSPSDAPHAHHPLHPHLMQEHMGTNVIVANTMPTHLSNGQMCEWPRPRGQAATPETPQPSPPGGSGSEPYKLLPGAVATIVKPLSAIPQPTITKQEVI
ALR inh: inhibitors of human sulfhydryl oxidase ALR; P55789; AID 485317; purified ALR, DTT oxidation, H2O2 HRP-luminol luminescence; inhibition, % (concentration not given with the values); 290,000 compounds, 3.8% hits;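 active means mean and each replicate at 75% or more; inconclusive means only one of the two met; inactive means neither met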;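 further: stock transfer was 7.5 nL into about 7.5 µL; 0% = neutral wells and 100% = wells with inactivated enzyme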
Target sequence (P55789 whole entry, looked up): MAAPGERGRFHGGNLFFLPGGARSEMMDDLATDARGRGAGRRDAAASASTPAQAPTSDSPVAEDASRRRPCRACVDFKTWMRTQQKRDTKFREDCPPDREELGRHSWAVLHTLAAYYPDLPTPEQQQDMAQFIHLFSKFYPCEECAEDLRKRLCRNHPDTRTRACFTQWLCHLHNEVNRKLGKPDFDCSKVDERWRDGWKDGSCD
E coli growth: blocks Escherichia coli growth; OD600, 23 h; hits give low values; OD600 absorbance (concentration not given with the values); 330,000 compounds, 0.21% hits; AID 1053175;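 active means OD600 absorbance below the run mean of sample wells minus 3.6 SD, in any replicate, cut at about 0.56 in these data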;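 further: stock transfer was 300 nL into about 60 µL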
AF4-AF9 inh: MLL-AF4/AF9 protein interaction inhibition. AlphaScreen, biotin-AF4 peptide binding to FLAG-AF9. 350,000 compounds, 0.47% hits. AID 651704. P42568. inhibition, % at 10 µM;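 active means every replicate reaching a set inhibition limit, whatever the replicate mean, cut at about 25% in these data; inconclusive means mean inhibition reaches that limit but some replicates miss it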;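 further: 0% = plate neutral control median and 100% = total signal loss; the record names both 10 and 1 µM as test concentration; the first replicate is given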
Ecoli rRNA inh: inhibitors of bacterial rRNA selective over humanized ribosomes; E. coli WT GFP vs humanized-ribosome RFP mutants, fluorescence, 24 h; hits give low values; DMSO median 0, no signal -100; GFP signal change (wild-type ribosome), % (no concentration beside the values); 350,000 compounds, 1.6% hits;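 active means significant combined selectivity score with lowered wild-type GFP, culture density cut under 30%, mutant RFP and density less affected; inactive means any of these conditions unmet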; further: one replicate is shown; some compounds called inactive have numbers as strong as hits
Ecoli rRNA inh OD600: further read-out of Ecoli rRNA inh, marked with its call; OD600 change, %; measured here: OD600 growth;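 optical density of the mix in the first replicate; 0 = DMSO median and -100 = no signal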
Ecoli rRNA inh RFP: further read-out of Ecoli rRNA inh, marked with its call; RFP signal change, %; measured here: RFP humanized mutant strains;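 first replicate; 0 = DMSO median and -100 = no signal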
Active calls of the source: *; & = joins results of further samples. Only part of the results is shown; count on the stated rates, not on these rows.

Screening CCOc1ccc2nc(NC(=O)c3ccc(C)o3)sc2c1 returned FGF22 binding inactive, HNF4A DNA FP 0.7, ALR inh 22, E coli growth 0.69, Ecoli rRNA inh 0, Ecoli rRNA inh OD600 1 and Ecoli rRNA inh RFP -1.4.
N#CCCN(C(=O)COC(=O)c1cccc(S(=O)(=O)N2CCCC2)c1)c1ccc(F)cc1 was read as FGF22 binding inactive, HNF4A DNA FP 0.6, ALR inh -2, E coli growth 0.74, AF4-AF9 inh -0.8, Ecoli rRNA inh 2, Ecoli rRNA inh OD600 0 and Ecoli rRNA inh RFP 1.0.
C#CCNC(=O)C[C@H]1C[C@@]2(C(=O)OC)C(=C[C@H](C(C)(C)C)O[C@@H]2C)N(CCc2ccc(OC)c(OC)c2)C1=O was read as FGF22 binding inactive, AF4-AF9 inh 2.1, Ecoli rRNA inh 3, Ecoli rRNA inh OD600 -5 and Ecoli rRNA inh RFP -4.5.
Screening COC(=O)c1cc(N2C(=O)C3C4C=CC(CC4)C3C2=O)ccc1Cl (configuration not stated) returned FGF22 binding inactive, Vif A3G 10%, HNF4A DNA FP -1.5, ALR inh -1, E coli growth 0.65, AF4-AF9 inh 0.2, Ecoli rRNA inh 12, Ecoli rRNA inh OD600 17 and Ecoli rRNA inh RFP -0.8.
Screening Cc1cc(=O)oc2cc(OCc3nnc(-c4ccccc4Br)o3)ccc12 returned Vif A3G -18%, HNF4A DNA FP 4.2, ALR inh -7 and E coli growth 0.74.
`Nn1c(SCc2ccccc2F)nnc1-c1ccccn1` gave FGF22 binding inactive, Vif A3G -8%, HNF4A DNA FP 5.6, E coli growth 0.61, AF4-AF9 inh 0.5, Ecoli rRNA inh 4, Ecoli rRNA inh OD600 1 and Ecoli rRNA inh RFP 2.6.
For CCOC(=O)C1CCN(C(=O)COc2ccc3c(C)cc(=O)oc3c2)CC1 the results were FGF22 binding inactive, Vif A3G -4%, HNF4A DNA FP 1.5, ALR inh 0, E coli growth 0.62, AF4-AF9 inh -32, Ecoli rRNA inh 1, Ecoli rRNA inh OD600 3 and Ecoli rRNA inh RFP -0.5.
`CC1(C)ON=C(c2cccc(F)c2)NC1=O` gave FGF22 binding inactive, HNF4A DNA FP 0.6, AF4-AF9 inh 0.1, Ecoli rRNA inh 6, Ecoli rRNA inh OD600 7 and Ecoli rRNA inh RFP 4.7.
`COc1ccc(C(C[N+](=O)[O-])C2(c3ccc(OC)c(OC)c3)C(=O)c3ccccc3C2=O)cc1` (configuration not stated) gave Vif A3G 2%, HNF4A DNA FP 1.7 and ALR inh 62.
O=c1[nH]c(Cc2ccccc2Cl)nc2ccccc12 was read as FGF22 binding inactive, Vif A3G -2%, HNF4A DNA FP 1.2, ALR inh -8, E coli growth 0.74, AF4-AF9 inh 1.1, Ecoli rRNA inh 15, Ecoli rRNA inh OD600 12 and Ecoli rRNA inh RFP 0.6.
Cc1c[n+]([O-])n(-c2ccc(C(=O)O)cc2)n1 was read as Vif A3G 29%, HNF4A DNA FP 0.5 and E coli growth 0.71.
For CC1(C)CC(=O)c2cc(OCC(=O)NCCCN3CCN(c4ccc(F)cc4)CC3)ccc2O1 the results were Vif A3G 6%&-8%, HNF4A DNA FP -2.1, ALR inh 41 and E coli growth 0.66.
Screening N/C(=N\NS(=O)(=O)c1ccccc1)c1ccccn1 returned FGF22 binding inactive, HNF4A DNA FP 0.9, ALR inh 59, E coli growth 0.71, AF4-AF9 inh 3.1, Ecoli rRNA inh 1, Ecoli rRNA inh OD600 -1 and Ecoli rRNA inh RFP -3.5.
Screening O=C1CC(c2ccccc2)CC(O)=C1C=NCc1ccccc1Cl (configuration not stated) returned Vif A3G 3%, HNF4A DNA FP 0.4, ALR inh -5 and E coli growth 0.71.
O=c1c(Cl)c(NCCO)ncn1-c1ccccc1 was read as Vif A3G 22%, HNF4A DNA FP 0.6, ALR inh 16 and E coli growth 0.64.
Screening CC(=O)NC(NC(=S)Nc1ccccc1Br)C(Cl)(Cl)Cl (configuration not stated) returned FGF22 binding inactive, Vif A3G 0%, HNF4A DNA FP -6.8, ALR inh -4, E coli growth 0.73, AF4-AF9 inh -1.8, Ecoli rRNA inh 2, Ecoli rRNA inh OD600 7 and Ecoli rRNA inh RFP -0.1.
COc1ccc(N2CCN(CC(=O)Nc3cc(C)on3)CC2)cc1 was read as Vif A3G 1%, HNF4A DNA FP 4.2, ALR inh inconclusive and E coli growth 0.67.
Screening COc1ccc(C[C@H]2CCc3cnnn3COC[C@H](c3ccccc3)NC2=O)cc1 returned FGF22 binding inactive, AF4-AF9 inh 1.9, Ecoli rRNA inh 7, Ecoli rRNA inh OD600 6 and Ecoli rRNA inh RFP -6.9.
Screening O=C(O)C(c1ccccc1)C1(O)CCCCC1 (configuration not stated) returned FGF22 binding inactive, Vif A3G 24%, HNF4A DNA FP 5.2, ALR inh 0, E coli growth 0.69, AF4-AF9 inh -8.2, Ecoli rRNA inh 8, Ecoli rRNA inh OD600 10 and Ecoli rRNA inh RFP -2.2.
C[C@H](CO)N1C[C@H](C)[C@H](CN(C)Cc2ccc(C(=O)O)cc2)Oc2ccc(NC(=O)Nc3cccc4ccccc34)cc2C1=O was read as FGF22 binding inactive, AF4-AF9 inh 2.7, Ecoli rRNA inh 0, Ecoli rRNA inh OD600 -7 and Ecoli rRNA inh RFP 2.9.
`COC1c2ccccc2C(=O)N1CCc1ccc(Cl)cc1` (configuration not stated) gave FGF22 binding inactive, HNF4A DNA FP -3.3, ALR inh -9, E coli growth 0.66, AF4-AF9 inh 0.0, Ecoli rRNA inh 5, Ecoli rRNA inh OD600 1 and Ecoli rRNA inh RFP -3.8.
CCC(C(=O)OC)n1c(-c2ccccc2)nc2ccccc2c1=O (configuration not stated) was read as FGF22 binding inactive, Vif A3G -3%, HNF4A DNA FP -0.2, E coli growth 0.67, AF4-AF9 inh -21, Ecoli rRNA inh -3, Ecoli rRNA inh OD600 -14 and Ecoli rRNA inh RFP -4.1.
`COc1ccc(Cl)cc1NC(=O)c1cc(S(=O)(=O)N2CCCC2)cn1C` gave FGF22 binding inactive, HNF4A DNA FP 4.8, ALR inh -5, E coli growth 0.7, AF4-AF9 inh -3.4, Ecoli rRNA inh -7, Ecoli rRNA inh OD600 1 and Ecoli rRNA inh RFP -1.8.
C[C@H]1CN([C@@H](C)CO)C(=O)c2cccc(NS(=O)(=O)c3cn(C)cn3)c2O[C@@H]1CN(C)Cc1ccc(C(=O)O)cc1 was read as FGF22 binding inactive, AF4-AF9 inh -0.2, Ecoli rRNA inh 0, Ecoli rRNA inh OD600 3 and Ecoli rRNA inh RFP -2.4.
For O=C(NCc1ccccc1)C1CCCN1S(=O)(=O)c1cccc2cccnc12 (configuration not stated) the results were FGF22 binding inactive, Vif A3G 19%, HNF4A DNA FP 1.7, ALR inh -175, E coli growth 0.75, AF4-AF9 inh -4.9, Ecoli rRNA inh -1, Ecoli rRNA inh OD600 3 and Ecoli rRNA inh RFP -3.8.
COCC#Cc1cnc2c(c1)C(=O)N([C@H](C)CO)C[C@@H](C)[C@@H](CN(C)C(=O)CN1CCOCC1)O2 was read as FGF22 binding inactive, AF4-AF9 inh -3.3, Ecoli rRNA inh 4, Ecoli rRNA inh OD600 -5 and Ecoli rRNA inh RFP -2.8.
CCOC(=O)C1=C(COC(=O)c2cccc(Br)c2)NC(=O)NC1C (configuration not stated) was read as FGF22 binding inactive, Vif A3G -2%, HNF4A DNA FP 1.1, ALR inh 0, E coli growth 0.65, AF4-AF9 inh -1.5, Ecoli rRNA inh 9, Ecoli rRNA inh OD600 4 and Ecoli rRNA inh RFP 1.0.
Screening COC(=O)c1cc(Br)c(=O)n(CCN(C(C)C)C(C)C)c1 returned Vif A3G 24%, HNF4A DNA FP -1.0, ALR inh 0 and E coli growth 0.74.
CCC(=O)Nc1ccc2c(c1)C(=O)N(C)C[C@@H](OC)[C@@H](C)CN(C(=O)Cc1cccnc1)[C@@H](C)CO2 was read as FGF22 binding inactive, AF4-AF9 inh -0.5, Ecoli rRNA inh 2, Ecoli rRNA inh OD600 9 and Ecoli rRNA inh RFP 0.6.
`Cc1cc(NC(=O)CS(=O)(=O)c2cn(Cc3cccc(Cl)c3)c3ccccc23)no1` gave FGF22 binding inactive, HNF4A DNA FP -0.6, AF4-AF9 inh -8.9, Ecoli rRNA inh -23, Ecoli rRNA inh OD600 -21 and Ecoli rRNA inh RFP -0.4.
`Cc1cc(N2CCN(C)CC2)nc2ccc(NC(=O)CCC(=O)NCCC(C)C)cc12` gave FGF22 binding inactive, Vif A3G -10%, HNF4A DNA FP 1.5, ALR inh -2, E coli growth 0.69, AF4-AF9 inh 6.1, Ecoli rRNA inh -1, Ecoli rRNA inh OD600 2 and Ecoli rRNA inh RFP 0.6.
For CC(CCc1ccccc1)NC(=O)CCCCCNc1nc(=S)[nH]c2ccccc12 (configuration not stated) the results were Vif A3G -3%, ALR inh 57 and E coli growth 0.71.
For CN(C)C(CNS(=O)(=O)c1ccc(Cl)cc1)c1cccnc1 (configuration not stated) the results were FGF22 binding inactive, Vif A3G 3%, HNF4A DNA FP 0.5, E coli growth 0.74, AF4-AF9 inh -2.9, Ecoli rRNA inh 5, Ecoli rRNA inh OD600 6 and Ecoli rRNA inh RFP -5.5.
For CCn1c(SCC(=O)N2CCCC2)nnc1-c1ccc(N)cc1 the results were Vif A3G 0%, HNF4A DNA FP -1.5, ALR inh 2 and E coli growth 0.73.
O=C(COc1ccc(Br)cc1)Nc1nnc(C2CC2)s1 was read as FGF22 binding inactive, HNF4A DNA FP -3.0, ALR inh 18, E coli growth 0.72, AF4-AF9 inh inconclusive, Ecoli rRNA inh 22, Ecoli rRNA inh OD600 14 and Ecoli rRNA inh RFP 3.1.
`C[C@@H](NC(=O)C[C@H]1CC[C@@H](NS(=O)(=O)c2cccc(F)c2)[C@@H](CO)O1)c1ccccc1` gave FGF22 binding inactive, AF4-AF9 inh -2.1, Ecoli rRNA inh 0, Ecoli rRNA inh OD600 4 and Ecoli rRNA inh RFP 0.5.
O=C(CN1CCN(Cc2ccccc2)CC1)N1CCCc2c1c(=O)oc1ccc(O)cc21 was read as Vif A3G -9%&14%, HNF4A DNA FP 0.4, ALR inh 27, E coli growth 0.7 and AF4-AF9 inh -1.5.
Screening CCCc1c(O)nc(SCC(=O)NCCc2ccc(OC)c(OC)c2)[nH]c1=O returned Vif A3G 0%&1%, HNF4A DNA FP -0.2, ALR inh 98* and E coli growth 0.72.
`CCN(CC)C(=O)c1ccccc1NC(=O)CN1C(=O)c2ccccc2C1=O` gave FGF22 binding inactive, Vif A3G -13%, HNF4A DNA FP 5.5, E coli growth 0.7, AF4-AF9 inh -0.8, Ecoli rRNA inh 15, Ecoli rRNA inh OD600 11 and Ecoli rRNA inh RFP -1.8.
For CCc1nc(Nc2ccccc2)c2oc3ccccc3c2n1 the results were Vif A3G -4%, HNF4A DNA FP 0.2, ALR inh -11 and E coli growth 0.72.
For C=CCN1C[C@H](COC(=O)c2cccc(C)c2)Oc2cccc(F)c2S1(=O)=O the results were FGF22 binding inactive, AF4-AF9 inh -1.0, Ecoli rRNA inh -16, Ecoli rRNA inh OD600 -26 and Ecoli rRNA inh RFP -1.1.
`COc1cccc(-c2csc(N3CCN(Cc4ccccc4)CC3)n2)c1` gave Vif A3G 25%, HNF4A DNA FP 0.8, ALR inh -3 and E coli growth 0.68.
`COc1ccc(NC(=O)c2cc(-c3ccc4c(c3)OCO4)on2)cc1OC` gave FGF22 binding inactive, HNF4A DNA FP 1.1, E coli growth 0.66, AF4-AF9 inh 0.7, Ecoli rRNA inh -2, Ecoli rRNA inh OD600 3 and Ecoli rRNA inh RFP -2.0.
